Mtb H37Rv: M. tuberculosis H37Rv growth inhibitors, H37Rv strain (AID 1626); M. tuberculosis H37Rv growth inhibition; higher % means a stronger effect; one-dose inhibition, % at 10 µM; IC50 in µM for titrated hits; 220,000 compounds, 0.95% hits;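 active means confirmed in a dose series; inconclusive means inhibition above 80% but not taken into the dose series; inactive means below 80% or under 30% at every dose of the series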;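 further: bacteria incubated seven days before Alamar blue readout; 0% = bacteria only wells and 100% = bacteria with antibiotic wells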
Mtb betalactam: beta-lactam sensitization of Mtb H37Rv; M. tuberculosis H37Rv growth with meropenem, percent inhibition; hits of this screen are not shown here; inhibition, % at 25 µM; 330,000 compounds, 0.27% hits;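 active means about 74% or more and at least 40 points above the plate without the antibiotic, then above 30% in a dose series; inconclusive means first-round hits that could not be retested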;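 further: growth measured after seven days incubation then overnight dye step; 0% = bacteria only wells and 100% = bacteria with antibiotic; twin plates without the antibiotic show which effects depend on it; some results filed as inactive read as strong as hits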
Arbovirus inh: blocks arbovirus infection; arbovirus infection cell-based antiviral screen; inhibition, % at 10 µM; 200,000 compounds, 0.37% hits;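 active means inhibition from about 30%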;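 further: bluetongue infection of BSR cells; cell survival read as ATP light after 72 h; 0% = infected wells without compound and 100% = uninfected wells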
RecA splice inh: Mtb RecA intein splicing inhibition; P9WHJ3; cell-free RecA intein splicing, fluorescence; inhibition, %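 (about 9 µM by stock and volumes)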; 290,000 compounds, 0.75% hits; AID 2221; in the data active means inhibition above about 30%; inconclusive means no clear call, values can overlap the other calls;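 further: 0% = vehicle wells and 100% = reference inhibitor control wells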
Target sequence (P9WHJ3 whole entry, looked up, canonical isoform): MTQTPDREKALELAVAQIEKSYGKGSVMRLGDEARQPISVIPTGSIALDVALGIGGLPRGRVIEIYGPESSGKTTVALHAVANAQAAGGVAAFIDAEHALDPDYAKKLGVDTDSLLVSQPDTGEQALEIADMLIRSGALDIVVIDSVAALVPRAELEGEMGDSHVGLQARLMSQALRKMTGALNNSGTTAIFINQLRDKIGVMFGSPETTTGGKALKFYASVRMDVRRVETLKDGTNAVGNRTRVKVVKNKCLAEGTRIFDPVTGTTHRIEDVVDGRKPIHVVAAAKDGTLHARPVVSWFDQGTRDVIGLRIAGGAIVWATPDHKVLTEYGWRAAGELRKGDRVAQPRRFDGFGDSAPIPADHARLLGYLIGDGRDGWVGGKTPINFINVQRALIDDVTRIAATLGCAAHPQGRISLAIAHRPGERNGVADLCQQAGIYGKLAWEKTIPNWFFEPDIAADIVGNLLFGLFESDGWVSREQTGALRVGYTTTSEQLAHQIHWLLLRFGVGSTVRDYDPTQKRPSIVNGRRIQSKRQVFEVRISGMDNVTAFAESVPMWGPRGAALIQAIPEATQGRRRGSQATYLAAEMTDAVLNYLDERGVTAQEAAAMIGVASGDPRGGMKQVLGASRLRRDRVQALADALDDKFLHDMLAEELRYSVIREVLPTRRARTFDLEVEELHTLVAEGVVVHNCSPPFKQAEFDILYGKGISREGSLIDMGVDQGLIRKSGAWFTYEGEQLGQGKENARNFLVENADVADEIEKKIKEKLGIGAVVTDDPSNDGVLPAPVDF
YopH inh: YopH (Yersinia) phosphatase inhibition. AID 898. inhibition, %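 (about 10 µM by stock and volumes)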. fluorescence Ex485/Em525. 140,000 compounds, 0.16% hits;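 active means inhibition of 50% or more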;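 further: controls were vehicle for no effect and minimum signal wells for full effect; inactives centre near -20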
Arbovirus inh repeat: second read-out of Arbovirus inh, no call of its own (marks repeat the call); inhibition, %; measured here: 10K subset replicate screen; many hits read low in the repeat;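 first of two repeat runs on a subset; 0% = infected and 100% = uninfected wells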
* = called active by the depositor; ? = inconclusive; nt = no result given. The list is partial; the hit share may differ from the screen's.

SMILES	Mtb H37Rv	Mtb betalactam	Arbovirus inh	RecA splice inh	YopH inh	others
CCOC(=O)c1c2c(c(=S)n(-c3ccccc3)c1N)CCC2	-6%	14	-1	11	-53
CC(NC(=O)C(c1ccccc1)c1ccccc1)C(=O)N1CCCCC1 (stereo not given)	-8%	-9	0	-1.2	nt
CC1Cc2nc(SCC(=O)Nc3ccc(F)cc3)n(C)c(=O)c2S1 (stereo not given)	nt	1	4	2.4	-35
Fc1ccc(-n2nnc(-c3nccs3)n2)cc1	-9%	2	-5	-2.7	nt
CC(C)N1C(=O)CSC1c1ccc(Br)cc1 (stereo not given)	-8%	-3	7	3.2	nt
CCOC(=O)c1ccccc1NC(=O)CSc1nnc(Cc2cccn2C)n1-c1ccc(F)cc1	1%	5	-8	0.3	-32
Cc1cc(C)c(S(=O)(=O)N2CCOC2CNC(=O)C(=O)NCCc2ccc(S(N)(=O)=O)cc2)c(C)c1 (stereo not given)	nt	4	nt	-4.4	nt
O=S(=O)(c1ccc(Br)cc1)N1CCCN(Cc2cccc(F)c2)CC1	1%	-7	16	2.4	-15
CC(C)(C)OC(=O)NC1CONC1=O (stereo not given)	-1%	-1	2	-0.9	-37
CCOCCCNC(=O)COc1ccc(OC)cc1	nt	0	3	-1.5	-1
COc1ccc2c(c1OC)C(=O)N1C2SC[C@H]1C(=O)NC1CCCCC1 (stereo not given in full)	nt	1	nt	-1.2	nt
O=C(COC(=O)C1(c2ccccc2F)CCCC1)NCc1ccc2c(c1)OCO2	7%	1	11	3.9	-27
O=C(N/N=C/c1ccc(-c2ccccc2Cl)o1)c1ccccc1	?	94	-8	0.5	nt
CCCCn1c(SCC(=O)Nc2cc(C(F)(F)F)ccc2Cl)nnc1C(CC)N(C)C (stereo not given)	2%	0	6	-0.9	-17
Cc1cccc(-c2nc(CSCC(=O)NCCCN3CCOCC3)c(C)o2)c1	-10%	14	13	2.9	3
c1ccc(Oc2cccc(OCCn3cncn3)c2)cc1	13%	-1	2	0.6	-31
Cc1c(C(=O)Nc2nc3ccccc3[nH]2)oc2ccccc12	1.3µM*	95	-25	5.1	-25
CC(C)(C)C(CN1CCCC1)OC(=O)c1ccccc1 (stereo not given)	nt	8	nt	1.9	nt
Cc1ccc(N(CCC#N)C(=O)CCl)cc1C	20µM*	99	6	56*	-7
CCOc1ccc(S(=O)(=O)N(CC)CC)cc1N	3%	-3	2	-3.9	nt
CCCNC(=O)c1ccc(N2CCC3(CC2)CC(c2ccccc2)=NO3)c(NC(=O)c2ccccc2)c1	nt	-1	nt	0.2	nt
CC(=O)Nc1cccc(-c2csc(Nc3cccc(C)n3)n2)c1	2%	16	-8	-2.5	-23
COc1ccc(-c2cc(-c3ccccc3)nc(SCC(=O)Nc3ncc(C)s3)c2C#N)cc1	7%	9	-8	-5.2	-14
C/C(=N\NC(N)=S)c1ccc(-n2ccnc2)cc1	-22%	nt	nt	0.6	nt
CC(C)(C)C(=O)CN1CCN(C2c3ccccc3-c3ccccc32)CC1	3%	-6	7	0.3	-12
COc1cc(/C=N/S(=O)(=O)CCc2ccccc2)cc(OC)c1O	-5%	44	-6	-4.0	-8
O=C(Cc1ccccc1)NCC(=O)N/N=C/c1ccc(C(=O)O)cc1	nt	-3	nt	-0.7	nt
COC(=O)c1cccc(COC(=O)c2ccc(CS(=O)(=O)c3ccc(C)cc3)cc2)c1	-9%	4	-5	-2.5	-26
CC1(C)CC(=O)C2=C(C1)N(c1ccccc1)C(=O)C2(O)C(F)(F)F (stereo not given)	-5%	1	3	0.1	-18
Cc1oc2cc(O)ccc2c(=O)c1Oc1ccccc1	9%	-4	9	-2.4	-56
CCOC(=O)N1CCN(C(=O)COC(=O)C2CCN(S(=O)(=O)c3ccc(C)c(C)c3)CC2)CC1	nt	-7	nt	10	nt
O=C(NCC(c1cccnc1)N1CCN(c2ccccc2)CC1)c1ccco1 (stereo not given)	-7%	-2	nt	-1.6	-32
CC1CCc2c(sc3ncn4c(SCC(=O)NCc5ccco5)nnc4c23)C1 (stereo not given)	-9%	-7	-6	1.4	-8
CCN(C(=O)CSc1nc2cc(C(=O)OC)ccc2c(=O)n1Cc1ccco1)c1cccc(C)c1	5%	-5	-7	3.4	-8
COc1ccc(CCNC(=O)CCS(=O)(=O)Cc2ccccc2C)cc1OC	nt	-8	nt	-3.9	nt
NNCCc1ccccc1	-10%	-3	2	0.9	-15
N#C/C(=C\c1c(N2CCC(C(N)=O)CC2)nc2ccccn2c1=O)S(=O)(=O)c1ccccc1	5%	-4	-9	0.3	-15
CCSc1ncc(/C=N/Nc2ccc(Cl)cc2)n1C	?	99	-28	12	6
Fc1ccc(C2NC(=S)NC3=C2N2CCC3CC2)cc1 (stereo not given)	8%	-2	12	0.8	-16
COc1cc2c(cc1NC(=O)C(C)OC(=O)C1CC(=O)N(Cc3ccco3)C1)oc1ccccc12 (stereo not given)	5%	0	13	-0.4	-10
CN(CCOc1ccccc1)C(=O)c1ccc2c(=O)n3c(nc2c1)CCC3	nt	-3	nt	-0.5	nt
COc1ccc(C2=NN(C(=O)COc3ncnc4ccccc34)C(c3ccco3)C2)cc1 (stereo not given)	1%	6	13	0.6	nt
O=C(CC1Oc2ccccc2NC1=O)NCCCN1CCOCC1 (stereo not given)	-11%	10	-1	-1.1	-31	Arbovirus inh repeat=10
COc1cccc(NS(=O)(=O)NC(=O)c2c(C)[nH]c3ccccc23)c1	nt	2	nt	-0.2	nt
O=C1C=CC(=O)N1CCNc1ncc(C(F)(F)F)cc1Cl	-3%	nt	1	4.7	nt
COc1cccc(CN2CC(C(=O)NCCCc3ccncc3)CCC2=O)c1 (stereo not given)	nt	-6	nt	-0.7	nt
CC1=NNC(=O)C1CC(=O)N/N=C/C(Br)=C/c1ccccc1 (stereo not given)	-2%	0	nt	23	nt
CCn1c(SCC(=O)NC(=O)NCc2ccco2)nnc1-c1cccs1	-4%	-1	4	3.1	-22
COc1ccc(CC(=O)NC(C)(C)C)cc1S(=O)(=O)N1CCOCC1	-8%	1	6	-6.9	-4
CCOC(=O)NN1C(=O)c2ccccc2NC1c1ccccc1 (stereo not given)	1%	-3	2	-13	-12
CC(=O)N1CCN(CC(c2ccccc2)c2ccccc2)CC1	nt	-1	nt	0.5	nt
COCCNS(=O)(=O)c1cc(OC)c(C)cc1C	-8%	-3	-1	3.0	nt
Cc1ccc(NC(=O)CN(C)C(=S)NC2CC2)cc1	-3%	-11	10	-4.3	nt
CCOC(=O)C1(CC2CCCCO2)CCN(C(=O)Nc2ccc3c(c2)OCO3)CC1 (stereo not given)	-1%	4	-9	-1.3	nt
NC(=O)C1CCN(C(=O)c2ccc(OCC(=O)Nc3cccc(C(F)(F)F)c3)cc2)CC1	nt	2	nt	-1.7	nt
COc1ccc(C(=O)NCCc2nnc(SCC(=O)Nc3ccccc3C(C)C)n2C)cc1	-4%	2	4	1.4	-12
CN1CCN(c2ccc(-c3cccc(NC(=O)COc4ccc(Cl)cc4Cl)c3)nn2)CC1	nt	93	nt	-0.9	nt
CN(C)CCCN(Cc1cc2cc3c(cc2[nH]c1=O)OCO3)C(=S)Nc1ccccc1	-2%	-1	8	1.5	nt
CN(CC(=O)Nc1ccccc1Br)C(=O)c1cc2c(s1)CCCCC2	nt	-11	nt	2.6	nt
Cc1cc(NC(=O)COC(=O)C2CCN(C(=O)c3ccc(Cl)cc3)CC2)no1	-9%	-4	-3	-2.4	-41

Additional compounds.
SMILES	Mtb H37Rv	Mtb betalactam	Arbovirus inh	RecA splice inh	YopH inh	others
Cc1cc(NC(=O)c2ccc(S(=O)(=O)Nc3ccccc3)cc2)no1	4%	6	4	1.1	1
CC(C)OC(=O)CSc1nnc(CNc2ccc(Cl)cc2)n1Cc1ccccc1	-1%	85	5	9.9	11
O=C(O)CCCNS(=O)(=O)c1ccc(NCc2ccccc2)c(C(=O)O)c1	-7%	-1	4	-0.4	16
Cn1cccc1CC(=O)NNC(=S)Nc1ccc(Cl)cc1Cl	9%	5	-9	2.1	-19
COc1ccc(-c2ccc(CNCc3ccccn3)o2)cc1Cl	nt	89	nt	-4.3	nt
CC(C)(C)NC(=O)COC(=O)c1ccccc1NC(=O)c1ccco1	67%	88	3	3.1	nt
CCCCn1c(N)c(N(CC(C)C)C(=O)CCCn2c(=O)oc3ccccc32)c(=O)[nH]c1=O	nt	-11	nt	-0.5	nt
O=C(Nc1c2c(nn1-c1cccc(Cl)c1)CS(=O)(=O)C2)c1ccco1	nt	4	nt	-0.1	nt
Cc1c(C(=O)OCC(=O)N2CCCC(C)C2)oc2ccccc12 (stereo not given)	nt	2	nt	-1.3	nt
Cc1ccc(NC(=O)COc2ccc(Br)cc2CO)cc1	4%	55	36*	1.3	3
CCOC(=O)c1c(NC(C)=O)sc2c1CCN(Cc1ccccc1)C2	nt	7	nt	-1.0	nt
Cc1ccnc(Nc2nc(-c3ccc(O)cc3)cs2)c1	nt	26	nt	-2.3	nt
c1csc(-c2nc(-c3ccncc3)no2)c1	-13%	-10	11	-0.8	-36
O=c1[nH]c(=O)n(CCc2ccccc2)c(O)c1/C=N/N1CCOCC1	-2%	-3	nt	-0.7	nt
CC1CCN(CC(=O)Nc2ccccc2Sc2ccccc2)CC1	10%	0	-13	14	-6
O=C(CSC(=S)N1CCCC1)N1CCN(S(=O)(=O)c2cccc([N+](=O)[O-])c2)CC1	nt	-10	nt	1.4	nt
O=C(CN1CCN(CCO)CC1)Nc1ccccc1	7%	-6	3	-0.4	-8
CCOc1cccc(=O)c2c(C)n(Cc3ccccc3)c(C)c12	7%	78	12	nt	nt
CCn1cc(C(=O)N/N=C(/C)c2ccc(F)cc2)c(=O)c2cc(F)c(N3CCCC3)cc21	-15%	nt	1	nt	14
C=CCOc1ccc(C(=O)/C=C2/C(=O)Nc3ccccc32)cc1	nt	4	nt	4.5	nt

Compounds above that contain two or more sulfur atoms:
SMILES	Mtb H37Rv	Mtb betalactam	Arbovirus inh	RecA splice inh	YopH inh	others
CC1Cc2nc(SCC(=O)Nc3ccc(F)cc3)n(C)c(=O)c2S1 (stereo not given)	nt	1	4	2.4	-35
Cc1cc(C)c(S(=O)(=O)N2CCOC2CNC(=O)C(=O)NCCc2ccc(S(N)(=O)=O)cc2)c(C)c1 (stereo not given)	nt	4	nt	-4.4	nt
COc1ccc(-c2cc(-c3ccccc3)nc(SCC(=O)Nc3ncc(C)s3)c2C#N)cc1	7%	9	-8	-5.2	-14
CC1CCc2c(sc3ncn4c(SCC(=O)NCc5ccco5)nnc4c23)C1 (stereo not given)	-9%	-7	-6	1.4	-8
CCn1c(SCC(=O)NC(=O)NCc2ccco2)nnc1-c1cccs1	-4%	-1	4	3.1	-22
O=C(CSC(=S)N1CCCC1)N1CCN(S(=O)(=O)c2cccc([N+](=O)[O-])c2)CC1	nt	-10	nt	1.4	nt

Following part
SMILES	Mtb H37Rv	Mtb betalactam	Arbovirus inh	RecA splice inh	YopH inh	others
Cc1ccc(S(=O)(=O)NCCSc2nnnn2-c2ccccc2)cc1	14%	8	-1	-0.4	-62
CCc1nnc(SCC(=O)Nc2ccc3c(c2)OCO3)o1	62%	58	-3	-4.7	-16
S=c1[nH]nc(-c2ccccc2)c2ccccc12	0%	2	5	-4.9	nt
Cc1ccc(C(C(=O)Nc2ccc3c(c2)OCO3)N(C)C(=O)/C=C\c2ccc3c(c2)OCO3)cc1 (stereo not given)	45µM*	95	1	-2.9	-17
CN(C(=S)NC(=O)Cc1ccccc1)c1ccccc1	-4%	6	13	5.0	nt
COc1cc(C=Nc2ccccc2C(=O)Nc2ccccc2)cc(OC)c1OC	-9%	0	2	-11	-25
COc1ccc(-c2cc(=O)c3c(O)c(OC)c(O)cc3o2)cc1	-9%	0	16	8.3	nt
CCc1cccc(NC(=O)c2cccc(S(=O)(=O)N3CCN(C)CC3)c2)c1	nt	5	nt	-4.3	nt
COc1cc(C(CC(=O)O)n2cnnn2)ccc1OC(C)C (stereo not given)	4%	-2	-1	nt	nt
O=C(CSCCO)Nc1ccc(C23CC4CC(CC(C4)C2)C3)cc1	-5%	4	-6	-1.9	-38
CC(=O)c1sc(NC(=O)CN2C(=O)NC3(CCCC3)C2=O)nc1-c1ccccc1	nt	2	nt	-19	nt
COc1ccc(C(=O)CNc2ccc3ccccc3c2)cc1	4.7µM*	nt	-1	-0.2	nt
COc1ccc(N2C(=O)CC(N3CCOCC3)C2=O)cc1 (stereo not given)	3%	-1	4	-0.5	-38
CC(C)(C)[C@@H]1CCC(=O)N(CC[C@H](Sc2ccccc2)c2ccccc2)CC1	nt	5	nt	27	nt
C/C(=N\NS(=O)(=O)c1ccccc1)c1ccccc1	-8%	0	1	-1.2	nt
C=CCNC(=O)C(C)N1c2cccc3cccc(c23)S1(=O)=O (stereo not given)	nt	0	nt	1.0	nt

Source: PubChem
